Source: PubChem
Mtb MenB inh – inhibitors of Mycobacterium tuberculosis MenB enzyme; inhibition, %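 (about 12 µg/mL by stock and volumes)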; 100,000 tested, 0.43% active; MenB enzyme assay, absorbance read-out; some hits fall short of the stated cut;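 active = mean of two replicates above 30%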;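 also: 0% = no compound and 100% = wells with inactive enzyme; the first replicate is given; strong numbers were not always called active; inactives centre near -10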
Target sequence (P9WNP5 whole entry, looked up): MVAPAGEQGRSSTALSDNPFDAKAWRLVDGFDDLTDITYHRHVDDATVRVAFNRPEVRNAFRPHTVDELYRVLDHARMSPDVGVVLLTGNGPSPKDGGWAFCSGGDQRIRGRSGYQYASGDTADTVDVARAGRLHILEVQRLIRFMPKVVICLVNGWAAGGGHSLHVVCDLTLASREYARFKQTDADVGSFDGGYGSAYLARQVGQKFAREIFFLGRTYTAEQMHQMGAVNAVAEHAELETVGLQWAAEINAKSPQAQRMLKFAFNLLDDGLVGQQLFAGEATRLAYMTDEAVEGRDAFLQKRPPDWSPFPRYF
Mtb MbtI inh – MbtI salicylate synthase inhibition; P9WFX0; purified MbtI enzyme, fluorescence intensity read-out; inhibition, %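 (about 17 µg/mL by stock and volumes)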; 100,000 tested, 0.89% active; AID 493033;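 active = above 50% in both replicates, above 80% if mildly self-fluorescent; inactive = the rest, strongly fluorescent compounds included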;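 also: 0% = mean of negative and 100% = mean of positive controls; one replicate is shown; some compounds called inactive have numbers as strong as hits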
Polio RdRp inh – poliovirus RNA polymerase inhibition | P03300 | poliovirus polymerase elongation, fluorescence polarization; hits give low values | % elongation, % (compound at 16.7 µg/mL) | 150,000 tested, 0.66% active | AID 588519; in the data active = % elongation below about 90%; also: some results filed as inactive read as strong as hits
Target sequence (P03300 1749-2209 limits assumed): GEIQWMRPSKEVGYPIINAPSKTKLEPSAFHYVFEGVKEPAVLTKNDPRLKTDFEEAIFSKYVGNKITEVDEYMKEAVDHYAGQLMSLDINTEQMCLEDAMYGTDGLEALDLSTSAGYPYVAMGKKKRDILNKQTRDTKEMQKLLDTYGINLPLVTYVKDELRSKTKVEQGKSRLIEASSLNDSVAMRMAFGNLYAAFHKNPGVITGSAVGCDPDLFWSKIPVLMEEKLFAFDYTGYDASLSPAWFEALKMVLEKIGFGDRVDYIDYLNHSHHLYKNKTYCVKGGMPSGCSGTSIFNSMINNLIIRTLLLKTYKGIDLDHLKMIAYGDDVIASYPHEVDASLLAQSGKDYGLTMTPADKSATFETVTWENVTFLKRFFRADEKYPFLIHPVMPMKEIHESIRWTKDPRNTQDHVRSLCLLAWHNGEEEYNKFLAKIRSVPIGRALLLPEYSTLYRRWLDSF
Polio RdRp inh intensity – also measured in Polio RdRp inh; calls as there; % elongation; measured here: total intensity read-out; formula for this scale not given here;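 total fluorescence in place of polarization; lower means less elongation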
The depositor's hits bear a star; nt = not tested or not shown; & = joins results of further samples.

# | mol | Mtb MenB inh | Mtb MbtI inh
1 | Cc1nc2ncnn2c(C)c1CC(=O)O | -1 | 3
2 | CCCc1c(C)c(C#N)c2nc3ccccc3n2c1NCCCn1ccnc1 | 3 | -4
3 | COc1ccc(OC(=O)c2ccc(Cl)cc2)cc1 | -4 | nt
4 | COC(=O)C(NC(=O)Cc1c(C)nc2c(-c3ccccc3)c(C)nn2c1C)C(C)C (stereo not given) | -2 | -10
5 | CCOC(=O)CC1=Nn2c(C)nnc2SC1 | -16 | 18
6 | O=C(COc1ccc(C(=O)c2ccc(F)cc2)cc1)NCCN1C(=O)CSC1=O | 6 | -36
7 | COc1ccc(/C=C2/C(=O)N=C(N)N2C)cc1 | 4 | 8
8 | COc1ccc(N2CCN(C(=O)c3cc(C)[nH]n3)CC2)cc1 | -1 | -21
9 | CC1SC2(NC1=O)C1CC3CC(C1)CC2C3 (stereo not given) | -17 | -16
10 | N#CCN(CC#N)C(=O)c1ccco1 | -9 | nt

# | Polio RdRp inh | Polio RdRp inh intensity
1 | nt | nt
2 | 97 | 106
3 | 104 | 112
4 | 102 | 109
5 | 96 | 96
6 | 101 | 105
7 | 100 | 103
8 | 101 | 102
9 | 99 | 102
10 | 101 | 109

Four entries from above, with each value named:
5. CCOC(=O)CC1=Nn2c(C)nnc2SC1
  Mtb MenB inh: -16
  Mtb MbtI inh: 18
  Polio RdRp inh: 96
  Polio RdRp inh intensity: 96
4. COC(=O)C(NC(=O)Cc1c(C)nc2c(-c3ccccc3)c(C)nn2c1C)C(C)C (stereo not given)
  Mtb MenB inh: -2
  Mtb MbtI inh: -10
  Polio RdRp inh: 102
  Polio RdRp inh intensity: 109
9. CC1SC2(NC1=O)C1CC3CC(C1)CC2C3 (stereo not given)
  Mtb MenB inh: -17
  Mtb MbtI inh: -16
  Polio RdRp inh: 99
  Polio RdRp inh intensity: 102
7. COc1ccc(/C=C2/C(=O)N=C(N)N2C)cc1
  Mtb MenB inh: 4
  Mtb MbtI inh: 8
  Polio RdRp inh: 100
  Polio RdRp inh intensity: 103

Exported with one line to a screen: 3 of the compounds above.
#4 COC(=O)C(NC(=O)Cc1c(C)nc2c(-c3ccccc3)c(C)nn2c1C)C(C)C (stereo not given)
#10 N#CCN(CC#N)C(=O)c1ccco1
#2 CCCc1c(C)c(C#N)c2nc3ccccc3n2c1NCCCn1ccnc1

entry no. | 4 | 10 | 2
Mtb MenB inh | -2 | -9 | 3
Mtb MbtI inh | -10 | nt | -4
Polio RdRp inh | 102 | 101 | 97
Polio RdRp inh intensity | 109 | 109 | 106

Following part.
# | mol | Mtb MenB inh | Mtb MbtI inh
11 | Cc1[nH]n(-c2ccc(Br)cc2)c(=O)c1C1=c2ccccc2=NC1=O | 3 | 64*
12 | O=C1Nc2ccccc2/C1=C/C1CC=CCC1 (stereo not given) | -31 | -3
13 | CC(NCc1ccccn1)C(O)c1ccccc1 (stereo not given) | -38 | 1
14 | COc1ccc(CCN2CC(C(=O)O)CC2=O)cc1 (stereo not given) | -4 | -7
15 | Cc1nc(SCC(=O)N(C)c2ccccc2)c(C#N)c(C)c1C | -20 | nt
16 | CC1=CC(C)(C)Nc2ccc(OC(=O)c3ccc(Cl)cc3)cc21 | nt | -2
17 | CCc1ccc(S(=O)(=O)Nc2ccc(-c3nc4cccnc4s3)cc2)s1 | -8 | 104
18 | O=C(c1ccncc1)C12CN3CN(CN(C3)C1)C2 | 5 | -15
19 | CCn1cc(S(=O)(=O)c2cc(C)ccc2C)c(=O)c2cc(F)c(N3CCOCC3)cc21 | 2 | -106
20 | Cc1c(N(C)CS(=O)(=O)O)c(=O)n(-c2ccccc2)n1C | -4&1 | -13&-2

# | Polio RdRp inh | Polio RdRp inh intensity
11 | 101 | 104
12 | 104 | 106
13 | 101 | 102
14 | 101 | 100
15 | 107 | 108
16 | 100 | 103
17 | 99 | 102
18 | 102 | 106
19 | 101 | 104
20 | 103&100 | 101&99

Later entries.
# | mol | Mtb MenB inh | Mtb MbtI inh
21 | Cc1nc2ccccn2c1/C=C1\C(=O)N(C)C(=S)N1C | -77 | -1
22 | CCOC(=O)c1c(C)oc(NC(=O)Nc2ccc(F)cc2)c1C(=O)OCC | -25 | nt
23 | COc1ccc(N2CCN(C(=O)[C@H](C)N3C(=O)c4cc(Cl)c(Cl)cc4C3=O)CC2)cc1 | -1 | -2
24 | Cc1ccc(N2C(=O)C(C)(C)C(C)(C)C2=O)cc1 | 8 | -7
25 | Cc1ccc(CS(=O)(=O)c2oc(-c3cccs3)nc2S(=O)(=O)c2ccc(F)cc2)cc1 | -1 | -2
26 | N#CC(C#N)=CNCCc1ccncc1 | -1 | -5
27 | O=C(CSc1nncn1-c1ccccc1)c1ccc(S(=O)(=O)N2CCCC2)cc1 | -31 | -14
28 | CC12CC3(C)CC(C)(C1)CC(C(=O)NCC(=O)O)(C2)C3 | -23 | -16
29 | O=C(COC(=O)Cc1ccc(Br)cc1)NC1CC1 | nt | -1
30 | Nc1ccccc1-c1nnc(SCC(=O)c2ccc(Cl)cc2)[nH]c1=O | 5 | 22

# | Polio RdRp inh | Polio RdRp inh intensity
21 | 116 | 107
22 | 106 | 103
23 | 104 | 100
24 | 103 | 103
25 | 103 | 106
26 | 98 | 98
27 | 111 | 115
28 | 102 | 101
29 | 100 | 96
30 | 100 | 103

Further structures.
# | mol | Mtb MenB inh | Mtb MbtI inh
31 | CC(C)C1Nc2ccc(C(=O)NCc3ccccc3)cc2NC1=O (stereo not given) | -26 | 31
32 | CC1CC2=C(NC(=S)NC2c2ccc(Cl)cc2)/C(=C/c2ccc(Cl)cc2)C1 (stereo not given) | -43 | 22
33 | C=CCN1CC[C@]23c4c5ccc(O)c4OC2C(=O)CC[C@@]3(O)[C@H]1C5 (stereo not given in full) | -6 | -8
34 | CNC(=O)c1ccccc1-c1nc(-c2ccccc2OC)no1 | -20 | -5
35 | COC(=O)Nc1sc(Cc2ccccc2)cc1C(N)=O | -21 | 39
36 | CC(=O)Nc1ccc(NC(=O)CN(C)S(=O)(=O)c2ccc3nc(C)sc3c2)cc1 | -5 | -3
37 | O=C1CC(c2ccc(Cl)cc2)Nc2nc3ccccc3n21 (stereo not given) | -13 | -10
38 | Cc1c(Cl)cn2c(=O)cc(CN(C)Cc3nc4ccccc4c(=O)[nH]3)nc2c1Cl | -21 | -14
39 | CN(C)S(=O)(=O)n1cc(/C=C(\NC(=O)c2ccccc2F)C(=O)NCc2ccco2)c2ccccc21 | -32 | 3
40 | C=CCn1c(CC(C)C)nnc1SCC(=O)Nc1ccc(OC)cc1 | -41 | 6

# | Polio RdRp inh | Polio RdRp inh intensity
31 | 101 | 101
32 | 103 | 109
33 | 102 | 100
34 | 101 | 102
35 | 100 | 99
36 | 103 | 105
37 | 102 | 106
38 | 109 | 115
39 | 101 | 103
40 | 104 | 99

Further results:
# | mol | Mtb MenB inh | Mtb MbtI inh
41 | O=C(CCn1c(=O)c2cccn2c2cccnc21)N1CCCC1 | -1 | 23
42 | N#Cc1cccnc1NNC(=O)Nc1ccc(OCc2ccccc2)cc1 | -25 | 9
43 | Cc1ccc(-n2c(O)c(/C=N/c3ccccn3)c3ccccc3c2=O)cc1C | nt | 0
44 | CCn1c(N2CCN(S(C)(=O)=O)CC2)nc2ccccc21 | -22 | -11
45 | NC(=O)c1cc(-c2ccccc2)sc1NC(=O)c1ccco1 | -9 | nt
46 | Cc1ccc2c(c1)C(=O)C1(O)CCN(c3ccccc3)C1=N2 (stereo not given) | -10 | -26
47 | N#Cc1c(-n2cccc2/C=N/NC(N)=S)sc2c1CCCC2 | -66 | 80
48 | COc1ccc(NS(=O)(=O)c2ccc(OCC(F)(F)F)c(C#N)c2OCC(F)(F)F)cc1 | -4 | -17
49 | CC1(C)CC(=O)C(C=NCCN2CCN(C(=O)Cc3ccc(Cl)cc3)CC2)=C(O)C1 | -8 | 2
50 | CN1CCC(N(C)C(=O)CNC(=O)c2ccc(C(C)(C)C)cc2)CC1 | -64 | -11

# | Polio RdRp inh | Polio RdRp inh intensity
41 | 103 | 99
42 | 102 | 104
43 | 99 | 96
44 | 103 | 98
45 | 112 | 117
46 | 101&105 | 103&109
47 | 100 | 105
48 | 107 | 110
49 | 103 | 103
50 | 97 | 100

Carrying on.
# | mol | Mtb MenB inh | Mtb MbtI inh
51 | CC(=O)Nc1ccc2c(COC(=O)c3ccc(-n4cnnn4)cc3)cc(=O)oc2c1 | -8 | -8
52 | O=C(c1ccccc1Nc1ccc(SC(F)F)cc1)N(CCO)CCO | 12 | 11
53 | CN1C(=O)C2C(c3cccc(Br)c3)C(C#N)=C(N)OC2N(C)C1=O (stereo not given) | -5 | nt
54 | CC1CCCC/C1=N\NC(=S)Nc1ccccc1 (stereo not given) | -72 | -12
55 | Cc1ccc(Nc2cc(C(=O)NCC3CCCO3)c3ccccc3n2)cc1C (stereo not given) | -14 | -7
56 | c1ccc(NC2CCCCC2)nc1 | -2 | 15
57 | CCN(CC(=O)NCc1ccc(Cl)cc1)Cc1nnc(-c2ccc(F)cc2)o1 | 4 | -3
58 | Cc1nc2c(-c3ccc(Cl)cc3)c(C(F)(F)F)[nH]n2c(=O)c1Cc1ccccc1 | -12 | -48
59 | CC1(C)CC(=O)c2sc(N)nc2C1 | 2 | 8
60 | CC(C)c1ccc(NC(=O)c2cc3n(n2)C(C(F)(F)F)CC(c2ccco2)N3)cc1 (stereo not given) | -28 | nt

# | Polio RdRp inh | Polio RdRp inh intensity
51 | 99 | 109
52 | 103 | 95
53 | 100 | 100
54 | 123 | 128
55 | 101 | 105
56 | 103 | 105
57 | 109 | 114
58 | 100 | 103
59 | 98 | 101
60 | 98 | 89

(listing goes on)
# | mol | Mtb MenB inh | Mtb MbtI inh
61 | COc1c(Cl)cc(CO)cc1Cl | 2 | -4
62 | CCCCn1c(SCC(=O)N(CC)C2CCS(=O)(=O)C2)nnc1C(CC)N(C)C (stereo not given) | -36 | -5
63 | CCCCOc1ccc(C(C)(C#N)CC#N)cc1 (stereo not given) | 3 | -3
64 | CN1CCc2c(OCc3ccc(Cl)cc3)cccc2C1=O | -30 | -9
65 | Cc1cccc(N2CCN(CN3C(=O)C4(OCCCO4)c4ccccc43)CC2C)c1 (stereo not given) | -30 | 9
66 | C=CCNc1sc(C)nc1C(N)=O | 7 | nt
67 | CC(SC1=N/C(=C\c2ccco2)C(=O)N1c1ccc(OC(F)F)cc1)C(=O)NCc1ccc2c(c1)OCO2 (stereo not given) | -49 | -23
68 | c1cncc(Oc2nc(CN3CCOCC3)nc3sc4c(c23)CCC4)c1 | -22 | 9
69 | CN(C)c1cccc(C(=O)NN)c1 | -10 | 13
70 | CC(=O)NS(=O)(=O)c1ccc(NC(=O)c2ccc(C)c(C)c2)cc1 | 23* | 6

# | Polio RdRp inh | Polio RdRp inh intensity
61 | 100 | 103
62 | 105 | 108
63 | 98 | 102
64 | 103 | 102
65 | 101 | 101
66 | 101 | 104
67 | 102 | 95
68 | 102 | 107
69 | 98 | 93
70 | 103 | 101

Next records.
# | mol | Mtb MenB inh | Mtb MbtI inh
71 | CCOc1ccc(-n2c(SCC)nc3c(c2=O)SCC3)cc1 | 10 | 0
72 | CC(NC(=O)c1cccs1)C12CC3CC(CC(C3)C1)C2 (stereo not given) | nt | -1
73 | CC(=O)Nc1ccc(NC2SC(=O)NC2=O)cc1 (stereo not given) | -13 | 0
74 | Cc1cc(=O)[nH]c2c1c(=O)[nH]n2C1CCCCC1 | -2 | nt
75 | CCOC(=O)C1=C(C)NC(C)=C(C(=O)OCC)C1C(=O)OC(C)C(=O)Nc1ccc(S(=O)(=O)N2CCCC2)cc1 (stereo not given) | -38 | -66
76 | NC(=O)CN1C(=O)c2ccccc2C1=O | 1 | -2
77 | CCc1cc(C(c2ccc(Cl)cc2)N2CCN(CCO)CC2)c(NC(=O)c2ccccc2)s1 (stereo not given) | -19 | 14
78 | Cc1ccc(-n2nc3c(c2NC(=O)c2ccccc2)CSC3)cc1 | -16 | 26
79 | COC(=O)Nc1scc2c1c(=O)oc1ccccc12 | -21 | 71*
80 | CCC(Oc1ccccc1)c1nc2ccccc2n1CC (stereo not given) | -19 | -7

# | Polio RdRp inh | Polio RdRp inh intensity
71 | 101 | 101
72 | 103 | 97
73 | 100 | 95
74 | 103 | 100
75 | 95 | 91
76 | 102 | 106
77 | 103 | 106
78 | 100 | 102
79 | 98 | 100
80 | 103 | 102

The list continues:
# | mol | Mtb MenB inh | Mtb MbtI inh
81 | O=C(/C=C/c1ccc(F)cc1)NC1=NCCS1 | 2 | 2
82 | C=CCN1C(=O)/C(=N\N=C\c2ccc(C)s2)c2ccccc21 | -106 | 6
83 | COC(=O)c1sccc1NC(=O)C1CCCS1 (stereo not given) | -2 | -5
84 | Nc1ccc(-c2ccccc2)cc1 | 10 | 2
85 | O=C(O)CCS(=O)(=O)c1ccc(Br)cc1 | 1 | nt
86 | Cn1cc(C(=O)Nc2cccnc2)c2ccccc2c1=O | -13 | 4
87 | Cc1ccc(Cl)cc1NC(=O)C1=NCCN1 | -49 | 0
88 | CCN1C[C@]2(COC)CC[C@H](O)[C@@]34C5C[C@@H]6[C@@H](OC)C[C@@](O)(C5[C@H]6OC)[C@@](O)([C@@H](OC)C23)[C@@H]14 (stereo not given in full) | -14 | 0
89 | OC1CCOc2ccccc21 (stereo not given) | -28 | -3
90 | c1ccc(C(CCNCc2cccs2)c2ccco2)cc1 (stereo not given) | -14 | nt
91 | CCN(CC)S(=O)(=O)c1ccc(/C=C/C(=O)Nc2ccc(F)cc2F)cc1 | nt | -1
92 | Ic1ccc2c(-c3ccccc3)onc2c1 | -30 | 2

# | Polio RdRp inh | Polio RdRp inh intensity
81 | 99 | 102
82 | 103 | 103
83 | 100 | 103
84 | 102 | 107
85 | 106 | 109
86 | 103 | 104
87 | 73* | 73*
88 | 102 | 103
89 | 103 | 99
90 | 108 | 107
91 | 100 | 105
92 | 100 | 104
